# Screening results from PubChem.
# CSC inhib: cancer stem cell inhibition; cancer stem cell-like cells viability, luminescence; inhibition, % at 7.5 µM; AID 2717; 300,000 compounds, 1.1% hits;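 active = mean at 75% or more and at least half the replicates too; inconclusive = mean and replicates disagree; tested in HMLE shEcad cells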;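 note: 0% = median of negative and 100% = median of positive control wells; the first replicate is given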
# eIF4H FP inh: inhibitors of RNA binding by human eIF4H; eIF4H fluorescence polarization binding assay; inhibition, % at 35 µM; 290,000 compounds, 0.94% hits; AID 2012;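 active = 50% or more with normal probe brightness, or confirmed in later tests; inconclusive = above 50% with abnormal brightness, or retests that disagree; inactive = below 50% or failed in later tests; about a fifth of its hits are not listed in these tables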;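 note: calls also rest on retests at 20 µM and on dose response follow-up; 0% = protein and probe with vehicle and 100% = probe without protein; strong numbers were not always called active; many hits fall short of the cut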
# PABP FP inh: blocks human PABP binding to poly(A) RNA. 290,000 compounds, 1% hits. fluorescence polarization. AID 2014. inhibition, % at 35 µM;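 active = 50% or more with normal probe brightness, or confirmed in later tests; inconclusive = above 50% with abnormal brightness, or retests that disagree; inactive = below 50% or failed in later tests; about a fifth of its hits are not listed in these tables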;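 note: calls also rest on retests at 20 µM and on dose response follow-up; controls were probe without protein and protein plus probe with vehicle; some compounds called inactive have numbers as strong as hits; many hits fall short of the cut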
# Target sequence (P11940 whole entry, looked up): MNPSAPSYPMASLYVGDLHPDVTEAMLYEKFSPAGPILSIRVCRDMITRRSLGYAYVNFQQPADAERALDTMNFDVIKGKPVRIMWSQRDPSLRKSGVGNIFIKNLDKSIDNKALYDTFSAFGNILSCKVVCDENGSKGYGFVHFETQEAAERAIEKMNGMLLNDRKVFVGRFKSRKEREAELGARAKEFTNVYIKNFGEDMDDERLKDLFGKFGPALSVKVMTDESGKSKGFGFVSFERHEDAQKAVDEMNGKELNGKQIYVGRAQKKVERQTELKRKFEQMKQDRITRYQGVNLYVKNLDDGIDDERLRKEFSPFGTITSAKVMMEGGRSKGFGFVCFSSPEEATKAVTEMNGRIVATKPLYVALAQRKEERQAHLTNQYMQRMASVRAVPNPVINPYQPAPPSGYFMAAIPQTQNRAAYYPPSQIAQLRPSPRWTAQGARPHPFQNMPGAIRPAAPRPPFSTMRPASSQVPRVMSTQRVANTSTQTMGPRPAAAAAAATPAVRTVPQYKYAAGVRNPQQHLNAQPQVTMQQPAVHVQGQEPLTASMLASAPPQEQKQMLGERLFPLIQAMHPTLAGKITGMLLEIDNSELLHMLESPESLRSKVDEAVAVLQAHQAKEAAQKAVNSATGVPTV
# HIV Env fusion: blocks HIV Env-driven cell-cell fusion | HeLa-JRFL Env/CEM21 cell fusion, luciferase | inhibition, % at 12.3 µM | 360,000 compounds, 1.1% hits;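 active = mean replicate inhibition score of at least 50 and every replicate individually at or above 50; inconclusive = only one of the two criteria met; inactive = mean below 50 and not all replicates reaching 50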;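 note: 0% = plate neutral controls and 100% = maraviroc near 300 nM; one replicate is shown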
# MT1-MMP act inh: blocks activation of human MT1-MMP. HT1080 RFP-PRO-GFP cells, GFP/RFP ratio fluorescence, overnight; percent of plate control window, DMSO zero. 360,000 compounds, 0.061% hits. GFP/RFP ratio change, % at 20 µM. P50281;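 active = GFP/RFP ratio change of at least 30% with cell ATP level not reduced by more than half and red fluorescence within 50% of control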; note: strong numbers were not always called active
#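 Assay system: RFP-PRO-GFP reporter HT1080 cells; read-out basis: GFP/RFP fluorescence ratio; benchmarks: DMSO wells and RFP-L50D-GFP cells; doses: 20 µM single dose, 1% DMSO; schedule: overnight cell settling, then overnight compound exposure, 37 °C, 5% CO2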
# Rce1 inhib: inhibitors of yeast Ras-converting enzyme; 290,000 compounds, 0.27% hits; Q03530; yeast membranes, quenched prenylated peptide cleavage fluorescence; calls only; AID 2563;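 active = fall in fluorescence gain of 50% or more versus controls, with final raw signal at or below 3038400; inconclusive = same 50% fall but final raw signal above 3038400; inactive = fall in fluorescence gain under 50%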;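 note: plate controls were neutral control wells for no effect and wells lacking membranes for full effect; tested at 10 µM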
# Target sequence (Q03530 whole entry, looked up): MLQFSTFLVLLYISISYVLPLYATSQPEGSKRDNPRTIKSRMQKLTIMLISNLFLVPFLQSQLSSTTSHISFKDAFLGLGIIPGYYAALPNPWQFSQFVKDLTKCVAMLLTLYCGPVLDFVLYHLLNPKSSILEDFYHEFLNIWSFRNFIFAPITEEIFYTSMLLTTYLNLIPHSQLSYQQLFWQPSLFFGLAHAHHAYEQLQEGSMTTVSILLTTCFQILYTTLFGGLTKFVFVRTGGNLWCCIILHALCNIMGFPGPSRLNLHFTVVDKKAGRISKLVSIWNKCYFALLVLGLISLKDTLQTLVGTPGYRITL
# UUG fidelity: modulators of start codon recognition fidelity in yeast; S. cerevisiae UUG-firefly luciferase reporter, luminescence/redox ratio; activity score, % at 18.7 µM; 350,000 compounds, 0.13% hits; AID 602363;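 active = replicate mean at a twofold rise or more, about +100% in these data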;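 note: firefly luciferase made from a UUG start codon reports start codon fidelity; reporter light over untreated wells divided by growth signal over untreated wells; some hits fall short of that in this replicate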
# eIF4H FP inh retest: further read-out of eIF4H FP inh, marked with its call; inhibition, %; compound at 20 µM; confirmation average;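 mean of two retest wells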
# PABP FP inh retest: second read-out of PABP FP inh, no call of its own (marks repeat the call); inhibition, %; compound at 20 µM; confirmation repeats;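 mean of two retest wells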
# MT1-MMP act inh RFP: recorded beside MT1-MMP act inh, whose call it bears; RFP signal change, %; measured here: RFP expression control read;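 0 = vehicle wells; hits needed this value within 50% of zero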
# * marks the source's active call; other numbers are inactive results; i = inactive; ? = inconclusive; . = not tested or not shown; + = active, no number; & = joins results of further samples; [ ] = another dose, or the depositor's remark.
# The opening 2 entries, to show the layout:
SMILES,CSC inhib,eIF4H FP inh,PABP FP inh,HIV Env fusion,MT1-MMP act inh,MT1-MMP act inh RFP,Rce1 inhib,UUG fidelity,others
OC(COc1ccc2ccccc2c1Br)Cn1cnc(-c2ccccc2)c1 (centres undefined),101*,-8,-12,-8,1,-1,i,-2,
CCOC(=O)C(C)Sc1nc2c(c(=O)[nH]c(=O)n2C)n1Cc1ccc(Cl)cc1 (centres undefined),0,-8,11,17,-1,4,i,0,

# This part in full, from the first entry:
SMILES,CSC inhib,eIF4H FP inh,PABP FP inh,HIV Env fusion,MT1-MMP act inh,MT1-MMP act inh RFP,Rce1 inhib,UUG fidelity,others
OC(COc1ccc2ccccc2c1Br)Cn1cnc(-c2ccccc2)c1 (centres undefined),101*,-8,-12,-8,1,-1,i,-2,
CCOC(=O)C(C)Sc1nc2c(c(=O)[nH]c(=O)n2C)n1Cc1ccc(Cl)cc1 (centres undefined),0,-8,11,17,-1,4,i,0,
CCN(CC(=O)Nc1cc(Cl)ccc1Cl)C(=O)c1ccc(-n2cccn2)cc1,.,.,.,10,4,4,.,-18,
Cc1cccc(C(=O)OCC(=O)Nc2nnc(-c3ccccc3)o2)c1O,3,.,.,-17,0,6,i,-31,
COc1ccccc1NC(=O)N(C)C[C@H]1OCc2cnnn2CCCC(=O)N([C@H](C)CO)C[C@@H]1C,.,.,.,-14[16.7 µM],4,3,.,-28&8&-5,
C=CCn1c(N/N=C/c2ccc(O)cc2)nc2ccccc2c1=O,9,-5,-2,-63,11,9,i,-13,
Cc1ccc(S(=O)(=O)N2CCOCC2)cc1NC(=O)COC(=O)c1n[nH]c(=O)c2ccccc12,8,-10,9,-8,4,-1,i,.,
COc1ccc(NS(=O)(=O)c2cc(NC(=O)CCNC(=O)c3ccco3)ccc2OC)cc1,.,.,.,-3,2,-2,.,-13,
COc1ccc(S(=O)(=O)N2CC(O)C[C@H]2C(=O)OCC(=O)N2CCCCCC2)cc1 (some centres undefined),4,2,-11,-9,-1,2,i,.,
Cn1c(CCN2CCCCC2)nc2cc(NC(=O)COc3ccccc3)ccc21,-7,-1,3,-6,2,4,i,-15,
CNS(=O)(=O)c1cccc(C(=O)OCC(=O)Nc2ccc(N3CCCCC3)cc2)c1,-2,8,?,4,4,6,i,-7,
CCOC(=O)c1cnn(-c2cc(Oc3ccccc3C)ncn2)c1N,5,0,4,.,-1,-6,i,5,
COc1ccc(-n2c(SCC(=O)NCc3ccco3)nc3c([nH]c4ccccc43)c2=O)cc1,-12,4,11,-68,1,1,i,1,
CCOC(=O)NC(O)C(=O)c1cccs1 (centres undefined),2,0,2,-30,6,11,i,-15,
COc1ccc(CN2CCN(C(=O)CC(C)C)CC2)cc1Br,-22,-2,-10,13,3,-4,i,-10,
Cc1cc(NC(=O)c2cc3cccc([N+](=O)[O-])c3[nH]2)ccc1F,-3,15,-4,-122,-1,-16,.,-14,
N#Cc1cccc(NC(=O)Cn2cnc(S(=O)(=O)N3CCCC3)c2)c1,9,-12,12,-3,1,2,i,-20,
CSc1ncccc1C(=O)Nc1nc(C(C)(C)C)cs1,-5,-10,1,-24,-29,-31,.,-7,
O=C(Cn1nnc(-c2ccc(Cl)cc2)n1)NC1CCS(=O)(=O)C1 (centres undefined),1,.,.,.,-1,6,.,-20,
CC(=O)Nc1ccc(S(=O)(=O)N2c3ccccc3NC(=O)CC2C)c(Cl)c1 (centres undefined),-3,-3,5,-3,0,3,i,-4,
CCOC(=O)C1=C(N)Oc2cc(O)ccc2C1c1cccc([N+](=O)[O-])c1 (centres undefined),11,-4,0,4,-14,-18,i,.,
Cc1ccc(Oc2nc(-c3ccccn3)nc3ccccc23)cc1,4,4,7,-9,4,-1,i,-30,
Cc1ccc(-c2nc(N)n(S(=O)(=O)c3ccc(C)cc3)n2)cc1,.,-2,-12,-7,0,-5,i,.,
O=c1cc(CN2CCN(S(=O)(=O)c3cccc(Cl)c3)CC2)c2ccc(O)cc2o1,37,.,.,5,-17,0,.,-8,
CCc1cc(=O)oc2c(C)c(OS(C)(=O)=O)ccc12,5,.,.,.,-2,2,i,-35,
O=C(c1cccs1)c1cn(CC(=O)N2CCc3ccccc3C2)c2ccccc12,.,7,-4,-6,0,-8,i,3,
O=C(CNS(=O)(=O)c1ccccc1)NCC(=O)OCc1ccccc1F,-4,0,6,4,5,1,i,.,
N#Cc1ccccc1NC(=O)CSc1n[nH]c(=O)n1C1CC1,-6,.,.,-20,-2,2,.,-6,
O=C1C2C3C=CC(C3)C2C(=O)N1CCCCN1C(=O)C2C3C=CC(C3)C2C1=O (centres undefined),5,-12,1,.,-2,4,i,-8,
COC(=O)C1=C(C)OC(N)=C(C#N)C1c1ccco1 (centres undefined),-4,27,-1,-114,-7,-3,i,5,
COC(=O)c1c(NC(=O)CSc2nnc(CNc3ccc(Cl)cc3)o2)sc(C)c1C,1,-10,-4,.,-1,4,i,-22,
CCCNC(=S)N(Cc1ccccc1)Cc1nc2ccccc2c(=O)[nH]1,-11,-8,-8,-37,-4,2,i,-18,
CCOC(=O)c1cc2c(=O)n3cccc(C)c3nc2n(CC(C)C)c1=NC(=O)c1ccco1,7,15,13,4,1,-3,+,-6,
CC(C)n1nnnc1SCC(=O)N(C)C1CCS(=O)(=O)C1 (centres undefined),4,.,.,3,0,3,.,-6,
Cc1ccc(SCC(=O)c2ccc(CC(=O)O)s2)cc1,11,74*,21,-8,-4,-3,i,-14,eIF4H FP inh retest=74*;PABP FP inh retest=19
Cc1ccc2nc3c(cc(C(=O)NCCCn4ccnc4)n3C)c(=O)n2c1,12,-4,-2,-58,3,2,i,-26,
CC(=O)Nc1ccc(S(=O)(=O)NC(CC(=O)O)c2ccc(OC(C)C)cc2)cc1 (centres undefined),-12,2,-1,2,0,2,i,-7,
O=C1c2ccccc2C(=O)N1n1cccc1,.,-8,-1,.,3,6,i,.,
O=S(=O)(NCc1ccco1)c1ccc(Cl)s1,-13,.,.,-5,1,3,.,-14,
CNC(=O)NC(=O)C(OC(=O)Cc1cccc(C(F)(F)F)c1)c1ccccc1 (centres undefined),-3,-4,6,7,-5,-4,i,-8,
O=C(CSc1nnc2sc3ccccc3n12)c1ccco1,9,1,13,.,1,5,i,-18,
O=C(CSc1nc2ccccc2o1)N/N=C/c1ccc(O)c(O)c1,31,41,30,7,-5,-9,i,-21,
CCOc1ccccc1N1CCN(c2nc3ccccc3nc2C(C#N)C(=O)OC)CC1 (centres undefined),5,16,6,.,-22,-12,i,-6,
COc1cc(OC)c(N(C)C(=O)CCNC(=O)Cn2cnc3ccccc3c2=O)cc1Cl,-7,4,3,-31,2,3,i,-18,
Cn1nc(OCC(N)=O)ccc1=O,3,-12,-4,.,2,-2,i,-13,
CC(NC(=O)c1cc(=O)[nH]c2ccc(Br)cc12)c1ccccc1 (centres undefined),-10,-7,-5,5,.,.,i,.,
Cc1cccc(NC(=O)C2CCCN(c3nc(C)cc(C)n3)C2)c1 (centres undefined),-10,0,-6,.,1,-1,i,-22,
COCCN(CCOC)S(=O)(=O)c1ccc(C(=O)Nc2nnc(COC)o2)cc1,-8,4,-4,10,-1,3,i,.,
COc1ccccc1N1CCN(C2CCN(C(=O)COc3ccccc3)CC2)CC1,8,10,-14,-3,1,5,i,-11,
COc1ccccc1CN1[C@@H](CC(C)=O)c2cc(C(F)(F)F)ccc2S1(=O)=O,15,.,.,29,0,-5,i,17,

# The final 2 compounds of the section above come first, to join the parts:
SMILES,CSC inhib,eIF4H FP inh,PABP FP inh,HIV Env fusion,MT1-MMP act inh,MT1-MMP act inh RFP,Rce1 inhib,UUG fidelity,others
COc1ccccc1N1CCN(C2CCN(C(=O)COc3ccccc3)CC2)CC1,8,10,-14,-3,1,5,i,-11,
COc1ccccc1CN1[C@@H](CC(C)=O)c2cc(C(F)(F)F)ccc2S1(=O)=O,15,.,.,29,0,-5,i,17,
COc1ccc(S(=O)(=O)NCCC(=O)NC2CCCCCCC2)cc1,0,6,6,32,3,-5,i,-5,
Cc1ccc(-c2cc(-c3n[nH]c(=S)n3C)c3ccccc3n2)cc1,-5,6,16,5,1,-2,i,.,
COCCCn1nnnc1SCC(=O)Nc1ccc2c(c1)OCCO2,-16,-5,-2,12,1,7,i,-16,
CC(=O)c1oc2ccccc2c1NC(=O)CN1CCCCC1,-4,-12,-11,.,1,-1,i,-1,
Cc1cc(OCC#N)nc(N)n1,-4,-16,-7,-7,-1,-1,.,-18,
COc1ccc(N2CCN(C(=O)CCC(=O)NNc3nc4ccccc4c4nc(C)nn34)CC2)cc1,-1,-7,2,6,-3,-1,i,.,
C/C(=N\Nc1ccc(Cl)c(C(=O)O)c1)c1ccc2c(c1)OCO2,-7,-2,5,-13,0,1,i,4,
O=C(Nc1nsc(-c2ccccc2)n1)c1ccncc1,.,0,6,.,0,-4,i,-24,
Brc1ccc(-n2cc(-c3ccccc3)c3c(NN4CCOCC4)ncnc32)cc1,66,-7,-3,.,-7,-7,i,-17,
Cc1ccc(S(=O)(=O)NNC(=O)C2CCN(Cc3ccccc3)CC2)cc1,16,47,5,-7,-2,-1,i,-10,
CC(=O)O[C@]1(C(C)=O)CC[C@H]2[C@@H]3C=C(C)C4=CC(=O)CC[C@]4(C)[C@H]3CC[C@@]21C,.,-6&6,-14&15,.,-3,-4,i,1&-4,
CCOC(=O)C1=C(Nc2ccc(C)cc2)CC(C)(O)C(C(=O)OCC)C1c1ccccc1 (centres undefined),38,-3,3,-50,3,0,i,-16,
O=C(NCCCNC(=O)c1cnccn1)c1ccc(Cl)cc1,-9,-1,12,-16,3,4,i,-15,
O=C(c1ccc2c(c1)OCO2)N1CCN(c2cccc(C(F)(F)F)c2)CC1,.,0,5,-11,.,.,i,-4,
COc1cc(/C=C/C(=O)O)cc(OC)c1,3,6,11,.,2,5,i,-19,
CC(C)c1ccc(NC(=O)N2CCc3ccccc3C2)cc1,20,-3,5,8,2,0,.,.,
COc1ccccc1N1CCN(C(=O)c2ccc(N(C)S(=O)(=O)c3ccccc3)cc2)CC1,.,-7,-2,0,0,-6,i,-22,
CCC(C)NC(=O)c1ccccc1-c1ccccc1C(=O)NC(C)CC (centres undefined),-8,3,-7,10,-1,3,i,-11,
Cc1ccc2[nH]c(CNC(=O)C3CCCCC3)cc2c1,0,6,-6,5,-13,-4,i,-8,
COc1ccc([N+](=O)[O-])cc1NC(=O)C1(c2ccccc2)CCOCC1,-5,-6,-7,37,-2,-3,i,7,
COc1ccc(-n2ncc3c(NCC(C)C)ncnc32)cc1,1,3,9,.,1,0,i,-33,
CCOC(=O)c1cn(CC)c2cc(N3CCOCC3)c(F)cc2c1=O,-9,-2,-15,.,-1,4,i,-10,
O=C(CCc1nc2ccccc2[nH]1)NCc1ccc2c(c1)OCO2,13,-4,8,-39,3,3,i,-11,
COCCSc1ccccc1C(=O)NCc1cccnc1,-7,-10,-10,-11,3,3,i,0,
Cn1c(NC(=O)Cc2cccc3ccccc23)cc(=O)n(C)c1=O,-11,-2,6,8,1,-2,i,-16,
Cc1cc(C)nc(N2C(=O)CC(Cc3ccc(Cl)cc3)C2=O)n1 (centres undefined),41,-6,-10,7,-2,1,i,.,
CCCCCCCCNS(=O)(=O)CCNCc1ccccc1OC,.,.,.,-10,7,3,.,-11,
Cc1cccc(N2CCN(C(=O)CSc3ccc4c(c3)OCCO4)CC2)c1C,19,.,.,1,14,5,.,-15,
